Screening data from PubChem.
PABP FP inh = blocks human PABP binding to poly(A) RNA. P11940. fluorescence polarization. inhibition, % at 35 µM. hit rate 1% among 290,000. AID 2014;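 active means 50% or more with normal probe brightness, or confirmed in later tests; about a fifth of its hits are not listed in these tables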;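 further: calls also rest on retests at 20 µM and on dose response follow-up; controls were probe without protein and protein plus probe with vehicle; some compounds called inactive have numbers as strong as hits; many hits fall short of the cut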
Rce1 inhib = yeast Ras-converting enzyme inhibition | hit rate 0.27% among 290,000 | calls only | yeast membranes, quenched prenylated peptide cleavage fluorescence | Q03530;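 active means fall in fluorescence gain of 50% or more versus controls, with final raw signal at or below 3038400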;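 further: plate controls were neutral control wells for no effect and wells lacking membranes for full effect; tested at 10 µM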
Target sequence (Q03530 whole entry, looked up): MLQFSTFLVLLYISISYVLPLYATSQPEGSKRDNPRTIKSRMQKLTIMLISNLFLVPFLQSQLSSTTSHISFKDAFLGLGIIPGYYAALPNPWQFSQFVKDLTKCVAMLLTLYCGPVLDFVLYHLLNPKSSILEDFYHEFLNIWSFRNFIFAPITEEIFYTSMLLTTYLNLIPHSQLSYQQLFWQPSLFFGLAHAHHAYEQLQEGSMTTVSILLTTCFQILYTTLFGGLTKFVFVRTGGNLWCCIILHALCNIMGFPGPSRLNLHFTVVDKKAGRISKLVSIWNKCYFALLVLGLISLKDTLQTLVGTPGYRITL
MT1-MMP act inh = MT1-MMP (human) activation inhibition | P50281 | HT1080 RFP-PRO-GFP cells, GFP/RFP ratio fluorescence, overnight; percent of plate control window, DMSO zero | GFP/RFP ratio change, % at 20 µM | hit rate 0.061% among 360,000;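 active means GFP/RFP ratio change of at least 30% with cell ATP level not reduced by more than half and red fluorescence within 50% of control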; further: strong numbers were not always called active
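Test system: HT1080 cells expressing an RFP-PRO-GFP fluorescent reporter construct / Compound dosing: single-point 20 µM compound, 1% DMSO / Schedule: cells overnight before dosing, compound overnight, 37 °C, 5% CO2 / Evaluation: GFP/RFP fluorescence ratio / Control set: DMSO and RFP-L50D-GFP cell wells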
eIF4H inh = inhibitors of RNA binding by human eIF4H. eIF4H fluorescence polarization binding assay. inhibition, % at 35 µM. hit rate 0.94% among 290,000. AID 2012;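 active means 50% or more with normal probe brightness, or confirmed in later tests; about a fifth of its hits are not listed in these tables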;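 further: calls also rest on retests at 20 µM and on dose response follow-up; 0% = protein and probe with vehicle and 100% = probe without protein; strong numbers were not always called active; many hits fall short of the cut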
Yeast UUG start = modulators of start codon recognition fidelity in yeast. S. cerevisiae UUG-firefly luciferase reporter, luminescence/redox ratio. activity score, % at 18.7 µM. hit rate 0.13% among 350,000;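 active means replicate mean at a twofold rise or more, about +100% in these data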;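 further: firefly luciferase made from a UUG start codon reports start codon fidelity; reporter light over untreated wells divided by growth signal over untreated wells; some hits fall short of that in this replicate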
HIV Env fusion = inhibitors of HIV Env-mediated cell fusion. HeLa-JRFL Env/CEM21 cell fusion, luciferase. hit rate 1.1% among 360,000. AID 651610. inhibition, % at 12.3 µM;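 active means mean replicate inhibition score of at least 50 and every replicate individually at or above 50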;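 further: 0% = plate neutral controls and 100% = maraviroc near 300 nM; one replicate is shown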
CSC inhib = blocks cancer stem cells; cancer stem cell-like cells viability, luminescence; inhibition, % at 7.5 µM; AID 2717; hit rate 1.1% among 300,000;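 active means mean at 75% or more and at least half the replicates too; tested in HMLE shEcad cells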;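 further: 0% = median of negative and 100% = median of positive control wells; the first replicate is given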
MT1-MMP act inh RFP = further read-out of MT1-MMP act inh, marked with its call; RFP signal change, %; measured here: RFP expression control read;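 0 = vehicle wells; hits needed this value within 50% of zero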
The depositor's hits bear a star; i = inactive; x = no result given.

canonical_smiles	eIF4H inh	HIV Env fusion	Yeast UUG start	MT1-MMP act inh	MT1-MMP act inh RFP	PABP FP inh	Rce1 inhib	CSC inhib
Fc1ccccc1C1CCN(Cc2nc(COc3ccccc3)no2)C1 (centres undefined)	-1	8	-21	0	0	0	i	2
COc1cccc(OCCn2cccc2/C=C2/C(=N)N3OC(C)=CC3=NC2=O)c1	-4	-11	-2	2	7	8	x	12
COCCn1c(SCC(=O)N2CCCC2=O)nnc1-c1ccncc1	x	-6	-17	-4	0	x	x	x
O=S(=O)(NCc1ccccn1)c1ccc(Cl)c(C(F)(F)F)c1	-1	19	-12	2	4	-3	i	-4
COc1ccccc1NC(=O)Cn1nc(Cc2cccnc2)c2ccccc2c1=O	4	-5	x	2	-1	0	i	-10
OC(c1ccccc1)(c1ccccc1)c1ccn[nH]1	x	-27	-21	-2	4	x	i	1
Cc1noc(C)c1C(=O)Nc1ccc(F)cc1	-3	-3	-8	2	-4	-3	i	-5
CC(=O)Nc1ccc(NC(=O)C(C)O/N=C/c2cccc([N+](=O)[O-])c2)cc1 (centres undefined)	-16	-80	-17	21	-8	-11	i	-4
CC(Sc1ccccc1F)C(=O)Nc1ccc2c(c1)OCCO2 (centres undefined)	x	x	-14	-2	-1	x	x	-7
Cc1[nH]c(=S)n(CC2CCCO2)c1C (centres undefined)	x	-2	-9	3	2	x	i	-9
CC(=O)Nc1ccc(S(=O)(=O)N[C@@H](C)C(=O)OCC(=O)c2ccc[nH]2)cc1	x	-60	-2	1	3	x	x	-13
O=S(=O)(c1ccc2c(c1)nc(COc1ccc(Cl)cc1)n2CC1CCCO1)N1CCOCC1 (centres undefined)	-1	-8	-21	2	-1	8	x	-7
C[C@H](NC(=O)C1CC(=O)N(c2ccc3c(c2)OCO3)C1)C(=O)NCc1ccco1 (some centres undefined)	-5	-5	-27	1	4	1	i	-6
Cc1c(Cl)cccc1NC(=O)NCc1ccc(C)n1C	19	4	8	-1	0	10	i	-15
COc1cccc(N2CCN(C(=O)c3oc4ccccc4c3NC(=O)CCc3cc(OC)no3)CC2)c1	-10	-5	-5	3	1	8	i	-12
CCOC(=O)CN1C(=O)CCSc2ccc(Cl)cc21	-1	9	7	0	0	1	i	-11

3 entries already listed, arranged by molecular weight, low to high:
canonical_smiles	eIF4H inh	HIV Env fusion	Yeast UUG start	MT1-MMP act inh	MT1-MMP act inh RFP	PABP FP inh	Rce1 inhib	CSC inhib
CCOC(=O)CN1C(=O)CCSc2ccc(Cl)cc21	-1	9	7	0	0	1	i	-11
CC(=O)Nc1ccc(S(=O)(=O)N[C@@H](C)C(=O)OCC(=O)c2ccc[nH]2)cc1	x	-60	-2	1	3	x	x	-13
C[C@H](NC(=O)C1CC(=O)N(c2ccc3c(c2)OCO3)C1)C(=O)NCc1ccco1 (some centres undefined)	-5	-5	-27	1	4	1	i	-6

Following part.
canonical_smiles	eIF4H inh	HIV Env fusion	Yeast UUG start	MT1-MMP act inh	MT1-MMP act inh RFP	PABP FP inh	Rce1 inhib	CSC inhib
COc1ccc(CCNC(=O)c2ccc(OCc3c(C)noc3C)cc2)cc1OC	x	x	1	-4	-4	x	x	-7
COC(=O)c1c(C)oc(C)c1S(=O)(=O)NCc1ccc(Cl)cc1Cl	-1	0	-6	3	-1	-8	i	-9
Cc1cc(C)n(CCCNC(=O)C2CCC(=O)N(CCc3ccc(Cl)cc3)C2)n1 (centres undefined)	3	8	-29	4	6	-1	i	-5
COc1ccc(CC(=O)N/N=C/c2ccc(-c3ccc(F)cc3)o2)cc1OC	0	-19	-18	-1	-6	5	i	10
Fc1ccc(C2CCNCC2COc2ccc3c(c2)OCO3)cc1 (centres undefined)	-5	-2	12	-10	-5	4	i	7
CC(OC(=O)c1cc(S(=O)(=O)N2CCOCC2)ccc1F)C(=O)NC1CCCCC1C (centres undefined)	-3	4	-19	-4	2	1	i	x
CSCCC(NC(=O)c1ccc(C)o1)C(=O)O (centres undefined)	-1	x	-11	-3	4	6	i	-12
CS(=O)(=O)N(Cc1ccc(Cl)cc1)c1ccc(C(=O)NCC2CCCO2)cc1 (centres undefined)	-4	23	x	-5	-3	-3	i	-4
COc1ccc2c(c1)C1=NN(/C(C)=C/C(C)=O)C(c3ccc(F)cc3)C1CC2 (centres undefined)	-2	-8	-14	-4	3	6	i	-6
NC(=O)C1CCN(C(=O)c2ccco2)CC1	2	x	8	4	2	7	i	-20
COc1ccc(Cn2nnnc2C(c2cccnc2)N2CCN(c3ccc(O)cc3)CC2)cc1 (centres undefined)	0	x	-6	-1	15	-6	i	-1
COc1ccc(NS(=O)(=O)c2csc(C(N)=O)c2)cc1	10	-1	-16	5	-3	-2	i	-21
Cc1ccc(C(=O)c2no[n+]([O-])c2C(=O)c2ccc(C)cc2)cc1	-4	4	x	3	3	0	i	36
CCOC(OCC)c1ccc(/C=C\c2nccc(N)n2)cc1	2	-13	-45	1	-3	-17	i	1
O=C(C1CCCN(S(=O)(=O)c2cccnc2)C1)N1CCN(c2ccccn2)CC1 (centres undefined)	0	-31	-9	1	-6	0	i	-27
Cc1c(C(=O)Nc2ccc(S(=O)(=O)NCC3CCCO3)cc2)cccc1[N+](=O)[O-] (centres undefined)	-6	-3	x	3	-5	3	i	7
COc1ccc(OC)c(CCNC(=O)Cn2nc(C)c3c(C)n(-c4ccc(C)cc4)nc3c2=O)c1	-2	19	1	3	-28	4	i	-24
CC(C)c1onc(C(=O)N2CCN(Cc3ccccc3)CC2)c1[N+](=O)[O-]	3	14	-6	0	-5	5	i	-27
CSc1ccccc1OCc1cc(C(=O)NC(C)Cn2cncn2)no1 (centres undefined)	-4	0	-16	2	-1	3	i	-20
COc1ccc(C(CNC(=O)c2cccc(S(=O)(=O)NCc3ccccc3)c2)N(C)C)cc1 (centres undefined)	13	-3	8	-1	1	1	i	4
CCN(C[C@H]1N[C@@](C)(C(=O)OC)[C@H]2C(=O)N(C)C(=O)[C@@H]12)C(C)=O	x	25	1	0	4	x	x	x
N#C/C(=C\c1ccccc1[N+](=O)[O-])C(=O)NC1CCCCC1	-1	6	x	-119	-2	4	i	-8
C[C@@]12C(=O)N(CCO)CC(=O)N1[C@H](/C=C/c1ccccc1)[C@@H]1C(=O)N(c3ccccc3)C(=O)[C@@H]12	-12	-12	x	x	x	7	i	-9
COc1cc2c(C#CCCCO)c(-c3ccc(C#N)cc3)oc(=O)c2cc1OC	x	6	-15	-3	-2	x	x	-17
COC(=O)c1ccc(NC(=O)CSCc2ccc(C)cc2)cc1	-3	-18	-4	-1	-3	0	i	-5
COc1ccc(NCc2nnc(SCC(=O)NCc3ccccc3)n2-c2ccccc2OC)cc1	-7	x	11	12	10	-11	i	x
CCCCN(C(=O)CSCC(=O)Nc1ccc(C)cc1)c1c(N)n(CCCC)c(=O)[nH]c1=O	x	-12	-4	-4	-5	x	i	6
COc1cccc(-c2nc3ccc(C(=O)NC(C)Cc4cccnc4)cc3o2)c1 (centres undefined)	0	-83	-17	3	-3	3	i	-10
Cc1cc(N2CCC(C)CC2)nc(-c2ccccc2O)n1	-4	1	x	-11	-1	-3	i	12
COCCc1ncc(CN2CCCCC2C(=O)Nc2ccc(Oc3ccccc3)nc2)cn1 (centres undefined)	0	x	-4	2	3	0	i	-2
O=C(Nc1cccc2c1[nH]c1ccccc12)C(F)(F)F	5	x	6	-1	-16	-4	i	28
O=C(Nc1cccc(C(=O)O)c1)/C(=C\c1ccc2c(c1)OCO2)NC(=O)c1ccc(Br)cc1	8	12	-16	9	3	13	i	x

Some of these compounds in order of the MT1-MMP act inh value, low to high.
| compound | MT1-MMP act inh |
| --- | --- |
| Cc1cc(N2CCC(C)CC2)nc(-c2ccccc2O)n1 | -11 |
| COC(=O)c1ccc(NC(=O)CSCc2ccc(C)cc2)cc1 | -1 |
| COc1ccc(NCc2nnc(SCC(=O)NCc3ccccc3)n2-c2ccccc2OC)cc1 | 12 |

(cont.)
canonical_smiles	eIF4H inh	HIV Env fusion	Yeast UUG start	MT1-MMP act inh	MT1-MMP act inh RFP	PABP FP inh	Rce1 inhib	CSC inhib
CCCNS(=O)(=O)c1ccc(OCC(=O)NCCCOC)cc1	13	-26	-27	3	6	-2	i	-12
Cc1ccc(SCC(=O)NC(=O)NC(C)C)c(C)c1	-5	-6	x	-2	-2	2	i	-13
O=C(NCCc1ccccc1)C1CCC(CNS(=O)(=O)c2cccc3cccnc23)CC1 (centres undefined)	-8	-10	17	-3	-5	3	i	-4
CCNc1nnc(SCC(=O)c2c(N)n(C3CC3)c(=O)[nH]c2=O)s1	x	-14	-20	-3	4	x	x	0
CCC(=O)N1CCN(c2ccc(NC(=O)c3ccc4c(c3)OCO4)cc2)CC1	-4	-27	2	4	-3	-6	i	-3
COc1cc2ccccc2cc1C(=O)Nc1cccnc1	1	-169	-16	4	2	-3	i	10
CCOC(=O)C1CCCN(Cc2c(C(=O)N3CCCCC3)nc3c(C)cccn23)C1 (centres undefined)	-8	-9	-3	-2	2	3	i	-7
NC(CCc1ccccc1)c1csc(Nc2cnccn2)n1 (centres undefined)	x	20	-11	-7	-3	x	x	x
Cc1cc(C(=O)O)c(CSCc2cc(C(=O)O)oc2C)o1	0	x	-9	-1	3	7	i	-15
Cc1ccc2nc(SC(C)C(=O)NCc3ccc4c(c3)OCO4)[nH]c2c1 (centres undefined)	-7	21	x	0	2	11	i	-8
COc1ccc(-c2cc(C(=O)N/N=C/c3cccnc3)c3ccccc3n2)c(OC)c1	x	14	x	2	-1	x	i	-8
Cn1cc(/C=C2/SC(=O)N(c3ccccc3)C2=O)c2ccccc21	-4	14	-17	0	5	-9	i	-2
Cc1cccc(NC(=O)C2SC(=Nc3c(C)cccc3C)C(C(=O)N3CCOCC3)=C2N)c1 (centres undefined)	-8	-22	1	0	2	-6	i	0
COc1cc2c(cc1OC)CN(C(=O)CCOc1ccccc1C)CC2	-3	18	1	2	3	6	i	x
COc1ccc(CCN(C)CC(=O)Nc2ccc(F)c(Cl)c2)cc1OC	-1	5	-20	0	3	6	i	-6
CC(=O)Oc1cccc(C(=O)Nc2ccccc2C(=O)N2CCCC2)c1	2	-4	-11	-2	-1	2	i	-16
CC(C)Cn1nc(NS(=O)(=O)c2ccccc2)c2cc3ccccc3nc21	-2	-10	-2	-3	3	-1	i	9
CNCc1ccccc1Sc1cccc(O)c1	0	10	-15	-7	1	-6	i	x
Cc1ccc(NC(=O)c2ccc3snnc3c2)cc1C	-12	-109	25	4	0	19	i	12
COc1ccc(/C=N/N2C(=O)CN(C(=O)c3ccccc3)C2c2ccc(OC)cc2)cc1 (centres undefined)	-5	4	15	-3	0	0	i	1
CCOC(=O)Cc1csc2nc3sc(C)c(C)c3c(=O)n12	-6	-59	-10	0	-4	-6	i	-21
Cc1cc(-c2cc(-c3ccc(Cl)cc3)on2)nc(NC2CCCC2)n1	-1	-3	-17	-2	5	-7	i	3
COc1ccc(OCC(=O)Nc2cc(OC)ccc2N2CCCCC2)cc1	-3	6	-12	-5	-5	-12	i	x
COC(=O)CN(c1ccccc1[N+](=O)[O-])S(=O)(=O)c1ccccc1	-11	11	x	-1	3	-2	i	x
Cc1ccc(NC(=O)CN(C)C(=O)COC(=O)CNS(=O)(=O)c2ccc(F)c(F)c2F)cc1	x	-6	x	2	2	x	i	7
CNc1ncnc2c1ncn2[C@H]1CN(Cc2cccnc2)C[C@@H](CO)O1	x	-63	-7	2	6	x	x	x
CCOc1cccc(C(=O)N(Cc2ccco2)C2CCS(=O)(=O)C2)c1 (centres undefined)	12	x	-5	0	6	-6	i	-7
Cc1ccc(-n2ncc(C(=O)NC3CC3)c2C2CCN(C(=O)OC(C)(C)C)CC2)c(C)c1	-2	3	-1	-1	2	-3	i	5
O=C(CP(=O)(c1ccccc1)c1ccccc1)N1CCOCC1	2	-2	x	2	-1	1	i	3
